High-throughput results: PubChem BioAssay, PCMD
Biofilm kill mix: mixture kills Candida albicans biofilm cells; C. albicans biofilm persisters + clotrimazole, fluorescence viability; primary screen in compound mixtures of four per well; inhibition, % at 7.6 µM; 120,000 tested, 0.02% active;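 active = inhibition above 30.3% in the primary screen of four-compound pools, then above 30% when the compound was retested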;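 also: compounds exposed to preformed 24 h biofilms for 48 h; the number belongs to the whole pool; some results filed as inactive read as strong as hits; inactives centre near 12; 0% = biofilm with clotrimazole alone and 100% = kill control; retested singly at about 60 µM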
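Incubation: 24 h biofilm formation, then 48 h compound exposure, 37 °C | Material: C. albicans biofilms | Buffer or medium: RPMI/MOPS medium, pH 7.0 | Measured by: 2-h Alamar Blue fluorescence, 535/590 nm excitation/emission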
The depositor's hits bear a star. Not all compounds are listed; the hit share may differ from the screen's.

SMILES	Biofilm kill mix
CCN1CCCC1CNCc1cccc(OC)c1OCc1ccccc1 (centres undefined)	17
O=C(COC(=O)c1ccc(Br)cc1)NCCC1=CCCCC1	3
O=C(Nc1ccc(Cl)cc1)Nc1nc(-c2ccccc2)cs1	13
CC1(C)SC(=S)N(NC(=O)Nc2ccccc2)C1N(O)C(=O)Nc1cccc2ccccc12 (centres undefined)	4
COc1cc([N+](=O)[O-])ccc1NC(=O)CSc1nnc(C)c(C)n1	21
CC1(C)CC(=O)c2sc(NC(=O)c3ccccc3)nc2C1	14
COc1cc(/C=C2/NC(=O)N(Cc3ccccc3F)C2=O)cc(OC)c1O	12
CN(CC(=O)OCC(=O)NCC(F)(F)F)S(=O)(=O)c1ccc(Cl)cc1	5
CCN1CCN(C(=O)N[C@@H](C(=O)N[C@@H]2C(=O)N3[C@@H]2SC(C)(C)[C@@H]3C(=O)O)c2ccccc2)C(=O)C1=O	16
CN(C)CCCNC(=O)c1cc2sc3ccccc3c2s1	11

Filtered by structure: those above with a Cl atom
SMILES	Biofilm kill mix
O=C(Nc1ccc(Cl)cc1)Nc1nc(-c2ccccc2)cs1	13
CN(CC(=O)OCC(=O)NCC(F)(F)F)S(=O)(=O)c1ccc(Cl)cc1	5

New compounds follow.
SMILES	Biofilm kill mix
COc1ccc(C(C(=O)NC2CCCCC2)N(C(=O)CCl)c2ccc(Cl)cc2)cc1 (centres undefined)	13
CCNS(=O)(=O)c1ccc(CCC(=O)O)cc1	9
CSc1ncccc1C(=O)Nc1nc2ccc(Oc3ccccc3)cc2s1	8
Cc1ccc(Nc2cc(=O)[nH]c(=O)[nH]2)cc1C	21
CC(C)c1onc(C(=O)NCCc2ccccc2)c1[N+](=O)[O-]	17
Cc1cc(=O)oc2cc(OCC(=O)OCC(=O)Nc3ccccc3Br)ccc12	16
COc1ccc(-c2csc3nc(-c4ccccc4OC)oc(=O)c23)cc1	8
Cc1nnc(SCC(=O)NCCc2ccccc2)s1	14
CN(C)c1ccc(P(=O)(Nc2ccc([N+](=O)[O-])cc2)N2CCOCC2)c(NC(=O)c2cccs2)c1 (centres undefined)	8
COC(=O)c1nnn(-c2nc(N3CCOCC3)nc(N3CCOCC3)n2)c1C	8
N#Cc1c(N2CCCCC2)nc(N)c2c(N)nc(SCC(=O)O)cc12	18
Nc1ccc(-c2nc3nc(N)nc(N)c3nc2-c2ccc(N)cc2)cc1	18
Cc1n[nH]c(C)c1CNCc1c(C(=O)N2CCCCCCC2)nc2ccc(Cl)cn12	13
COc1ccc(Cl)cc1NC(=O)NCC1CCN(C(=O)OC(C)(C)C)CC1	19
O=C(NCc1cccs1)c1ccc2ccccc2n1	27
Cn1cnnc1SCc1nnc(-c2ccccc2Br)o1	25
CCOc1ccc(CN2CCN(Cc3cnc(N4CCOCC4)s3)CC2CCO)cc1 (centres undefined)	25
CCOC(=O)c1c(-c2ccccc2)csc1NC(=O)C(C)NCCCN1CCOCC1 (centres undefined)	6
COc1ccc(OCC(=O)NNc2nc3ccccc3s2)cc1	22
O=C(c1cccs1)n1nc(NCc2ccccc2)nc1NCc1ccccc1	4
O=C(CCSc1ccc(Cl)cc1)Nc1cccnc1	18
CCOC(=O)CSc1nnc(NC(=O)c2cccc([N+](=O)[O-])c2)s1	8
COc1ccc(/C=N/NC(=O)Cn2cnc3ccccc3c2=O)cc1OC	-2
COc1cccc(NC(=O)c2ccc(-c3ccccc3[N+](=O)[O-])o2)c1	5
FC(F)(F)c1cc(-c2ccccc2)nc2nc(N3CCOCC3)sc12	17
COc1ccc(C(NC=O)c2cc(OC)c(OC)cc2Br)cc1OC (centres undefined)	-3
CC(=O)c1cccc(S(=O)(=O)Nc2cccc(S(=O)(=O)NC3=NCCC3)c2)c1	3
O=S(=O)(c1cccc2ccccc12)N1CCSC1	15
Cn1c(=O)c(-c2cc(=O)[nH][nH]2)c(O)c2ccccc21	9
S=c1[nH]nc(-c2cc(-c3ccccc3)n[nH]2)n1/N=C/c1c2ccccc2cc2ccccc12	13
NNC(=O)c1nc[nH]c1C(=O)Nc1ccccn1	18
Fc1ccc(-c2cnn3c(-c4ccncc4)ccnc23)cc1	12
CCc1ccc(CNCc2cccs2)cc1	4
CCOc1ccccc1N1CCN(C(=S)NC(=O)C23CC4CC(CC(C4)C2)C3)CC1	17
O=C(C1CC=CCC1)N1CCN(C(=O)C2CC=CCC2)CC1 (centres undefined)	10
O=C(Nc1nc(-c2cccc([N+](=O)[O-])c2)cs1)c1cccc([N+](=O)[O-])c1C(=O)O	2
CC(=O)Nc1ccc(/C=N/NC(=O)c2cccs2)cc1	10
CN(C)CCCOC(=O)COc1ccc(Br)cc1	17
CCN1CCCc2cc(CN(CCN3CCOCC3)C(=S)Nc3cccc(Cl)c3)ccc21	16
Cc1ccc(C)c(NC(=S)N2CCN(Cc3ccccc3)CC2)c1	12
O=S(=O)(c1cccs1)N1CCC(CO)(Cc2cccc(F)c2)CC1	1
O=C(COc1ccc(Cl)cc1)OCc1csc(Nc2ccccc2)n1	-4
COc1ccc(-c2cc(C(F)F)n3ncc(C(=O)Nc4cnn(Cc5ccccc5)c4)c3n2)cc1	14
COc1ccc(CNC(=O)CSc2ccsc2[N+](=O)[O-])cc1	17
COc1ccc(/C=C/C(=O)N(C)Cc2cccs2)cc1S(=O)(=O)N1CCOCC1	8
Cc1ccccc1NC(=O)/C=C/c1cccs1	10
C=CCn1c(N2CCN(c3ccc(OC)cc3)CC2)nc2c1c(=O)[nH]c(=O)n2C	7
CCc1ccc(C(=O)Nc2cccnc2Oc2ccc(Cl)cc2)cc1	15
c1csc(-c2nnc(COc3ccc4c(c3)OCO4)o2)c1	8
O=S(=O)(NCc1ccc(Cl)cc1)NCc1ccccc1F	19

The list continues.
SMILES	Biofilm kill mix
Cc1cc(-c2nnc(CCC(=O)NC(Cc3ccccc3)c3ccccc3)o2)no1 (centres undefined)	8
Cc1sc2nc(COC(=O)c3ccc(N4CCCC(C)C4)c([N+](=O)[O-])c3)[nH]c(=O)c2c1C (centres undefined)	12
O=S(=O)(NCCNc1ncc(C(F)(F)F)cc1Cl)C(F)(F)F	19
O=C(Nc1ccc(Cl)c(S(=O)(=O)N2CCOCC2)c1)c1cc(-c2ccccn2)nc2ccccc12	12
Cc1[nH]c2ccccc2c1C(=O)COc1ccccc1	7
NC(=O)Nc1ccccc1C(=O)N1CCC(O)(c2ccc(Cl)cc2)CC1	8
CC(=O)N1CCC(N(C(=O)Nc2ccc(Cl)cc2)C(C)C)CC1	19
O=C(CC1C(=O)NCCN1C(=O)Nc1ccc(F)cc1)Nc1ccc(F)cc1 (centres undefined)	27
Cc1ccc(-c2nc(SCC(=O)c3c(N)n(C)c(=O)n(C)c3=O)n[nH]2)cc1	10
Cc1ccc(-c2nnn(CC(=O)N(c3ccc(F)cc3)C(C(=O)NC(C)(C)C)c3ccco3)n2)o1 (centres undefined)	10
COc1ccc(C(=O)NCC(=O)N/N=C/c2cn[nH]c2-c2ccccc2)cc1	19
Oc1ccc(C[C@@H]2CNC(=S)N2CCc2cc(C(F)(F)F)cc(C(F)(F)F)c2)cc1	12
Cn1c(SCC(=O)Nc2nccs2)nnc1-c1ccco1	14
O=C(c1cc([N+](=O)[O-])cc([N+](=O)[O-])c1)N1CCCc2ccccc21	19
O=C(COc1cccc2c1CCN(Cc1ccccc1)C2=O)NCc1ccco1	21
COc1cccc(-c2nc(C=O)cs2)c1	18
Cc1ccc(NC(=O)CC2C(=O)OCC3CCCCN32)cc1Cl (centres undefined)	12
CC[n+]1c(/C=C/c2c[nH]c3ccccc23)ccc2cc(C)ccc21	13
C=CCSC1=N/C(=C\c2cc(OCC)c(OC(C)=O)c([N+](=O)[O-])c2)C(=O)S1	0
CCOC(=O)c1cnc2ccc(C(=O)OC)cc2c1NCCc1ccc(OC)c(OC)c1	2
Cc1c(-n2cccc2C=O)cccc1[N+](=O)[O-]	-12
CO/N=C/c1cccn1-c1nccc(OC)c1C#N	10
CC(NCCC(c1ccccc1)c1ccccc1)c1ccccc1 (centres undefined)	9
O=C(O)c1cccc(-n2nnnc2SCc2ccccc2Cl)c1	5
CCOC(=O)CC1C(=O)NCCN1c1nc2c(C)cccn2c(=O)c1/C=C1\SC(=S)N(CC(C)C)C1=O (centres undefined)	6
CN(C)C(C)(C)C#CCC(c1ccccc1)c1ccccc1	9
O=C(CCCCCNC(=O)c1ccccc1)N/N=C/c1ccc(F)cc1	7
CN(C)C=NC(=O)/C(C#N)=C/c1ccccc1	10
Cc1cc(C(=O)N2CCCC(C(=O)c3cccc(C(F)(F)F)c3)C2)nc(C)n1 (centres undefined)	8
CCOc1ccc(S(=O)(=O)NN=C2CCN(C(C)=O)CC2)cc1	13
CCCc1cc(=O)[nH]c(SCc2cc(=O)oc3c(C)c(C)ccc23)n1	6
Cc1ccc2nc(SCC(=O)N3CCN(C(=O)c4ccco4)CC3)[nH]c2c1	6
CC(=O)Nc1ccc(CN2CCN(CCC(C)C)C(CCO)C2)cc1 (centres undefined)	9
O=C(Nc1cccc(-c2csc(Nc3ccc(Cl)cc3)n2)c1)c1ccccc1	13
COC(=O)c1ccc(OC(=O)CCN2c3ccccc3Sc3ccccc32)cc1	24
CC(=O)Nc1ccc(S(=O)(=O)NCC(=O)NCCc2ccc(S(N)(=O)=O)cc2)cc1	6
COc1ccc2oc(=O)c(C(=O)Nc3cccc(C)c3)cc2c1	15
Cc1cccc(NC(=S)NCCC(c2ccccc2)c2ccccc2)c1	12
COC1=C(C)C(O)=C(C(=O)/C=C/c2ccccc2)C(=O)C1(C)C	17
O=C(COC(=O)c1ccc2c(c1)OCO2)NC1CCS(=O)(=O)C1 (centres undefined)	6
O=C(/C=C/c1cccc(Cl)c1)NCc1ccccc1	7
O=C(CCSc1ccccc1)NC(=O)COC(=O)c1ccc(OC(F)F)cc1	11
CCOC(=O)c1c(C)[nH]c(C(=O)CN2C(=O)NC3(CCCC3)C2=O)c1C	9
Cc1c(Cl)c([N+](=O)[O-])nn1Cc1ccc(C(=O)NN)o1	23
CCN=C1S/C(=C\c2ccc(N3CCOCC3)cc2C)C(=O)N1CC	6
CC(C)C[C@H](NC(=O)c1[nH]cnc1C(=O)N[C@H](C)c1ccccc1)C(=O)OC(C)(C)C	23
COc1cc(C(CCN2CCN(c3ccccc3)CC2)c2c(OC)cc(OC)c3ccc(=O)oc23)cc(OC)c1OC (centres undefined)	15
Nc1n[nH]c2ccccc12	29
CN1CCN(NC(=O)c2cc(-c3cccc(Cl)c3)nc3ccccc23)CC1	0
CC(=O)c1c(C)[nH]c(C(=O)Nc2ccccc2N2CCOCC2)c1C	-1

(listing goes on)
SMILES	Biofilm kill mix
CSCCC(NC(=O)c1ccc(Cl)cc1)C(=O)OCC(=O)Nc1cc(Cl)ccc1C (centres undefined)	3
Cc1nc(Nc2ccc3c(c2)OCCO3)c2c(C)c(C)sc2n1	5
Cc1nn(CC#N)c(=O)n1N(C)c1ncc(C(F)(F)F)cc1Cl	10
Cc1ccc2nc(N3CCCCC3)c(C=O)c(=O)n2c1	13
COc1ccc(CCN2C(=O)C3C4CCC(C4=C(C)C)C3C2=O)cc1OC (centres undefined)	19
CCN(CC)c1ccc(C(=O)Nc2ccccc2)cc1[N+](=O)[O-]	0
CCOC(=O)c1ccc2[nH]c3c(c2c1)CCCC3O (centres undefined)	0
CN(C)S(=O)(=O)c1ccc(NC(=O)C2CC(=O)N(Cc3ccccc3)C2)cc1 (centres undefined)	2
CC(C)(C)C(=O)CSc1nc2c(c(-c3cccs3)c1C#N)CCC2	-14
OCCn1c(Cl)nc2ccccc21	11

7 of these compounds in another layout:
SMILES | Biofilm kill mix
Cc1ccc2nc(N3CCCCC3)c(C=O)c(=O)n2c1 | 13
COc1ccc(CCN2C(=O)C3C4CCC(C4=C(C)C)C3C2=O)cc1OC (centres undefined) | 19
CCN(CC)c1ccc(C(=O)Nc2ccccc2)cc1[N+](=O)[O-] | 0
CCOC(=O)c1ccc2[nH]c3c(c2c1)CCCC3O (centres undefined) | 0
CN(C)S(=O)(=O)c1ccc(NC(=O)C2CC(=O)N(Cc3ccccc3)C2)cc1 (centres undefined) | 2
CC(C)(C)C(=O)CSc1nc2c(c(-c3cccs3)c1C#N)CCC2 | -14
OCCn1c(Cl)nc2ccccc21 | 11

Reformatted: four of the compounds above.
| Structure | Biofilm kill mix |
| --- | --- |
| CCOc1ccccc1N1CCN(C(=S)NC(=O)C23CC4CC(CC(C4)C2)C3)CC1 | 17 |
| O=C(COC(=O)c1ccc2c(c1)OCO2)NC1CCS(=O)(=O)C1 (centres undefined) | 6 |
| O=C(c1cc([N+](=O)[O-])cc([N+](=O)[O-])c1)N1CCCc2ccccc21 | 19 |
| COc1ccc(-c2csc3nc(-c4ccccc4OC)oc(=O)c23)cc1 | 8 |

The results go on:
SMILES	Biofilm kill mix
Cc1ccc(CN2CCN(Cc3ccc(OCCO)cc3)CC2CCO)o1 (centres undefined)	20
CN1CCN(c2ccc(Cl)cc2NC(=O)c2ccc([N+](=O)[O-])cc2)CC1	17
COc1ccccc1COCC(O)CN(Cc1ccco1)Cc1ccccc1O (centres undefined)	7
O=C(Nc1ccc(Cl)c(Cl)c1)O/N=C/c1ccncc1	14
COc1ccc(NC(=O)CCC(=O)OCc2ccc(Br)cc2)cc1	-12
O=C(/C=C/c1ccc(Br)cc1)NC(=S)N1CCOCC1	36
CC(C)CC(NC(=O)c1ccccc1)C(=O)OCC(=O)Nc1ccc(S(N)(=O)=O)cc1 (centres undefined)	11
S=C(NCc1ccccc1)N1CCN(c2ccccc2)CC1	5
CCN(C(=O)COC(=O)c1ccc(Cl)nc1)C1CCS(=O)(=O)C1 (centres undefined)	0
CCc1c(C#N)sc(C(N)=O)c1CC	10
COc1cc([N+](=O)[O-])ccc1NC(=S)N1CCN(c2ccccn2)CC1	7
O=[N+]([O-])c1cccc(C2NCC(c3ccccc3Cl)c3c2[nH]c2ccccc32)c1 (centres undefined)	14
